Compound activity as filed in PubChem BioAssay.
EPAC1 ag val: human EPAC1 agonism, validation; O95398; Potency, µM, without a hit: max response, positive = active, hits mostly activators; hit rate 1% among 16,000; EPAC1 Rap1b BODIPY-GDP exchange, fluorescence; AID 1645883; active = well fitted activation curve with a large enough effect; inconclusive = small, poorly fitted or top-dose-only effect; inactive = no such curve, though single readings can be large or run the other way;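 also: nearly all actives have a fitted effect of over 70% in size; series mostly up to about 76 or 150 µM; scaled to a cAMP control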
Target sequence (O95398 whole entry, looked up): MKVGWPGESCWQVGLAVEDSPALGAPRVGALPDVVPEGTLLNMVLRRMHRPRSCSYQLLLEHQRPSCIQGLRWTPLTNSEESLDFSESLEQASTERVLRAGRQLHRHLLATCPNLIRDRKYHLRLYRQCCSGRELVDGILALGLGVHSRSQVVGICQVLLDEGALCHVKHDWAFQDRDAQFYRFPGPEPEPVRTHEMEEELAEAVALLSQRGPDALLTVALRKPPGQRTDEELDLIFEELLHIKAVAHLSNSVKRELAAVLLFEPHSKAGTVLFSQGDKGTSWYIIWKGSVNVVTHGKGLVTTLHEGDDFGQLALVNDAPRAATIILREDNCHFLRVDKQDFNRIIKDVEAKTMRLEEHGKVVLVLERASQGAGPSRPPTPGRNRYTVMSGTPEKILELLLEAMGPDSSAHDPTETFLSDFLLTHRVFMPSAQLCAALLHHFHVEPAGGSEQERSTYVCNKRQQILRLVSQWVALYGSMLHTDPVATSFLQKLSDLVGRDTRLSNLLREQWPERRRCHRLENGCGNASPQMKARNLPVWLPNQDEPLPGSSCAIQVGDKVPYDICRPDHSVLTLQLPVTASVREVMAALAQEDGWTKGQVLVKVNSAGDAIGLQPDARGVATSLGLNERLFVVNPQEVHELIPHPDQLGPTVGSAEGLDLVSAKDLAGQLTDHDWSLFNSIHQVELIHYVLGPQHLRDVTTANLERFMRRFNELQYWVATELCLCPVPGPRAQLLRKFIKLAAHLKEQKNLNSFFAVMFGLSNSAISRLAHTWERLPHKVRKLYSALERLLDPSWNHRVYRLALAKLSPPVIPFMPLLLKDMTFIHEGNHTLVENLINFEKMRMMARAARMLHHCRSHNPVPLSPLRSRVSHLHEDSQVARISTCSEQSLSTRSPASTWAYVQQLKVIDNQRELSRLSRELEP
An asterisk follows results filed as active; & = joins results of further samples; [ ] = remark or other dose. % is scaled to controls: 0 for no effect and ±100 for the full control effect; potency is read from the fitted curve at half-maximal effect.

Start of the data: the first 2 records, to show the layout:
Cc1ccccc1C1(CC(=O)N2CCCC2c2nccs2)CC(=O)N(C2CCCC2)C1=O (stereo unspecified) was read as EPAC1 ag val -1.6%.
For Cc1ccc2c(c1)CC[C@H]1CC(=O)CC[C@@]21C the results were EPAC1 ag val 20.3%.

Results, previewed entries included:
Cc1ccccc1C1(CC(=O)N2CCCC2c2nccs2)CC(=O)N(C2CCCC2)C1=O (stereo unspecified) was read as EPAC1 ag val -1.6%.
For Cc1ccc2c(c1)CC[C@H]1CC(=O)CC[C@@]21C the results were EPAC1 ag val 20.3%.
Screening CC(=O)OCC(CCn1cnc2cnc(N)nc21)COC(C)=O returned EPAC1 ag val -12.9%.
For Cc1ccc(SCCN2CCC(C(C)(C)C)CCC2=O)cc1 (stereo unspecified) the results were EPAC1 ag val -42.2%[inhibitor].
`COc1ccc2cc(CNCc3ccccc3Cl)c(N3CCCC(CO)C3)nc2c1` (stereo unspecified) gave EPAC1 ag val 6.8%.
Screening COc1ccc(-c2nc3cnc(N4CCOCC4)nc3n(C)c2=O)cc1 returned EPAC1 ag val -5.7%.
Screening C[N+]1(C)[C@@H]2CC(OC(=O)[C@H](CO)c3ccccc3)C[C@H]1[C@H]1O[C@@H]12 (stereo partly specified) returned EPAC1 ag val 0.8%.
`COc1cccc(-c2cncnc2NCCc2cnc[nH]2)c1` gave EPAC1 ag val 2.9%.
Screening CC(=O)OCC(=O)[C@@]1(O)CCC2C3CC(C)C4=CC(=O)C=CC4(C)C3C(O)CC21C (stereo partly specified) returned EPAC1 ag val -34.6%[inhibitor].
`CN1CC[C@@]2(CCCN(C(=O)c3cccn3C)C2)C1` gave EPAC1 ag val -40.7%[inhibitor].
For CCCCCCCC(=O)OCC(O)CO (stereo unspecified) the results were EPAC1 ag val -26.0%.
For NS(=O)(=O)c1cccc2c1c([N+](=O)[O-])cc1nc(O)c(O)nc12 the results were EPAC1 ag val -7.9%&-23.0%.
For CCOC(=O)CN[C@@H](C(=O)N1CC[C@H]1C(=O)NCc1ccc(/C(N)=N/O)cc1)C1CCCCC1 the results were EPAC1 ag val 10.7%.
Screening CN(CCc1ccc(Cl)c(Cl)c1)C[C@@H](O)COc1ccc(NS(C)(=O)=O)cc1 returned EPAC1 ag val 4.6%.
Screening CC1CCC(NC(=O)N(CCCl)N=O)CC1 (stereo unspecified) returned EPAC1 ag val -62.3%[inhibitor].
Screening CC(=O)OC(C)(C)C1Cc2cc3ccc(=O)oc3cc2O1 (stereo unspecified) returned EPAC1 ag val -31.3%[inhibitor].
O=C(c1ccco1)N1CCC2(CCN(Cc3nccs3)CC2)CC1 was read as EPAC1 ag val -62.6%[inhibitor].
CN1CCN(c2ncc3nc(-c4ccccc4)c(=O)n(CCC#N)c3n2)CC1 was read as EPAC1 ag val -41.4%[inhibitor].
`N#Cc1ccc(CN2CC[C@@]3(CCCN(C(=O)c4ccco4)C3)C2)cc1` gave EPAC1 ag val -29.4%.
`CC(C)(C)c1ccc(C(O)CCCN2CCC(C(O)(c3ccccc3)c3ccccc3)CC2)cc1` (stereo unspecified) gave EPAC1 ag val -0.9%&-1.4%&11.1%.
Nc1ncnc2c1c(I)cn2[C@@H]1C[C@H](N)[C@@H](O)[C@H]1O was read as EPAC1 ag val -1.2%.
Screening Cc1nc(CC(=O)NCC2Cc3cc(F)cc(-c4ccc(F)c(C)c4)c3O2)cs1 (stereo unspecified) returned EPAC1 ag val 11.0%.
S=C(S)OC1CC2CC1C1CCCC21 (stereo unspecified) was read as EPAC1 ag val -1.5%.
N[C@H](Cc1ccccc1)C(=O)O was read as EPAC1 ag val -7.1%.
For CN1CCN(c2ncncc2-c2cccnc2)CC1 the results were EPAC1 ag val 18.5%.
For COc1ccccc1-c1nc(N(C)Cc2ccco2)c2ccccc2n1 the results were EPAC1 ag val -1.3%.
Screening Cn1cc(-c2nc3cnc(Oc4ccccc4)nc3n(CCC#N)c2=O)c2ccccc21 returned EPAC1 ag val -38.4%[inhibitor].
`Cc1cc(C(=O)Nc2cccc(-c3nc(CNC(=O)c4cc5ccccc5[nH]4)c(C)o3)c2)c(C)o1` gave EPAC1 ag val 11.1%.
Screening O=C1c2cccc3c2[C@H](CCC3)CN1[C@@H]1CN2CCC1CC2 returned EPAC1 ag val 9.0%.
Cc1nnc(SCC2=C(C(=O)O)N3C(=O)C(NC(=O)Cn4cnnn4)[C@@H]3SC2)s1 (stereo partly specified) was read as EPAC1 ag val 7.9%.
For O=C(O)CCCC[C@@H]1SC[C@@H]2NC(=O)N[C@@H]21 the results were EPAC1 ag val 14.2%.
`COc1ccc2c(c1OC)C(Cc1ccccc1)N1CCc3cc4c(cc3C1C2)OCO4` (stereo unspecified) gave EPAC1 ag val 24.4%.
COc1ccc(C(=O)OC2CC3CC[C@H](C2)N3C(C)=O)cc1OC (stereo partly specified) was read as EPAC1 ag val 4.2%.
COc1cccc(Nc2ncc3nc(-c4cccs4)c(=O)n(CCC#N)c3n2)c1 was read as EPAC1 ag val inconclusive.
For CO[C@@]1(NC(=O)CSCC#N)C(=O)N2C(C(=O)O)=C(CSc3nnnn3C)CSC21 (stereo partly specified) the results were EPAC1 ag val -9.4%.
Cc1cc(CNC(=O)c2cnn(-c3ncc4c(n3)-c3ccccc3CCC4)c2C2CC2)on1 was read as EPAC1 ag val -24.0%.
`O=S1(=O)OC(c2ccc(O)cc2)(c2ccc(O)cc2)c2ccccc21` gave EPAC1 ag val 8.6%.
Screening O=C(Nc1cccc(F)c1)N1CC[C@@]2(CCCN(C(=O)c3ccncc3)C2)C1 returned EPAC1 ag val -45.6%[inhibitor].
Screening OC1OC[C@@H](O)[C@H](O)[C@@H]1O (stereo partly specified) returned EPAC1 ag val -4.0%.
Screening C[N+](C)(C)CC[N+]1(C)Cc2c(Cl)c(Cl)c(Cl)c(Cl)c2C1 returned EPAC1 ag val 1.8%&-19.5%.
`Cn1c(-c2ccncc2)nc2cc(C(=O)N[C@H]3CCCCNC3=O)cc(NC(=O)C3CCC3)c21` gave EPAC1 ag val -9.4%.
Screening CCCCCCCCCCCC(=O)OCC(O)CO (stereo unspecified) returned EPAC1 ag val -115.8%[inhibitor].
For O=c1c(CCc2ccccc2)nc2cnc(Nc3ccccc3)nc2n1Cc1cccs1 the results were EPAC1 ag val -38.5%[inhibitor].
For N#CCC(=O)NN the results were EPAC1 ag val -32.4%[inhibitor].
Screening C=CCc1ccccc1OCC(O)CNC(C)C (stereo unspecified) returned EPAC1 ag val 5.8%&18.2%&-15.7%.
`O=c1oc2ccccc2cc1O` gave EPAC1 ag val -8.1%.
Screening Nc1cccc2c(N)cccc12 returned EPAC1 ag val 28.8%.
`COc1c(C(C)C)oc2cc3oc(=O)ccc3cc12` gave EPAC1 ag val -56.2%[inhibitor].
C[C@H](N)[C@H](O)c1cccc(O)c1 was read as EPAC1 ag val 8.0%.
For COc1ccc(S(=O)(=O)N(CCO)c2ccccc2CN(C)C/C=C/c2ccc(Cl)cc2)cc1 the results were EPAC1 ag val 9.5%.
Screening O=C1CC(c2ccc(O)cc2)Oc2cc(O)cc(O)c21 (stereo unspecified) returned EPAC1 ag val 6.8%&-25.7%.
Screening COCCn1c(=O)c(-c2cccc(C#N)c2)nc2cnc(OC)nc21 returned EPAC1 ag val 12.0%.
Screening COc1cc(=O)n2c(c1C(=O)N(C)Cc1nonc1C)CCN(C(=O)c1cc(C)ccc1C)CC2 returned EPAC1 ag val -13.2%.
`Cn1c(=O)c(-c2ccc(Cl)cc2)nc2cncnc21` gave EPAC1 ag val 3.6%.
For CC(C)(C)NC[C@H](O)COc1ccccc1C1CCCC1 the results were EPAC1 ag val -14.5%.
For O=c1c(-c2cccs2)nc2cnc(Oc3ccccc3)nc2n1Cc1cccs1 the results were EPAC1 ag val 10.8%.
For CCOC(=O)/C=C1\CN(Cc2cc(OC)c(OC)c(OC)c2)S(=O)(=O)c2ccccc21 the results were EPAC1 ag val inconclusive.
C[C@@H]1[C@H](c2ccccc2)OCCS(=O)(=O)N1Cc1cccc(Cl)c1 was read as EPAC1 ag val 4.0%.
Oc1cc2c(c(Cl)c1O)CCNCC2c1ccccc1 (stereo unspecified) was read as EPAC1 ag val -5.2%&-14.1%.
Screening COC(=O)CNC(=O)C(=O)OC returned EPAC1 ag val -4.8%.

6 records picked at random from the list so far:
For O=c1c(-c2cccs2)nc2cnc(Oc3ccccc3)nc2n1Cc1cccs1 the results were EPAC1 ag val 10.8%.
Screening COC(=O)CNC(=O)C(=O)OC returned EPAC1 ag val -4.8%.
C[C@@H]1[C@H](c2ccccc2)OCCS(=O)(=O)N1Cc1cccc(Cl)c1 was read as EPAC1 ag val 4.0%.
Screening COc1cc(=O)n2c(c1C(=O)N(C)Cc1nonc1C)CCN(C(=O)c1cc(C)ccc1C)CC2 returned EPAC1 ag val -13.2%.
`Cn1c(=O)c(-c2ccc(Cl)cc2)nc2cncnc21` gave EPAC1 ag val 3.6%.
Oc1cc2c(c(Cl)c1O)CCNCC2c1ccccc1 (stereo unspecified) was read as EPAC1 ag val -5.2%&-14.1%.

Additional compounds
O=C(NCCCN1CCOCC1)c1cnn(-c2ncc3c(n2)-c2ccccc2CC3)c1C1CC1 was read as EPAC1 ag val -0.1%.
`O=C(Nc1ccccc1)N1CC2(CCN(C(=O)c3ccncc3)CC2)C1` gave EPAC1 ag val 10.0%.
For CSc1nnc(CNC(=O)/C=C/c2ccccc2Cl)n1-c1ccc(F)cc1 the results were EPAC1 ag val 12.0%.
Cc1[nH]c2ccccc2c1/C=C/c1nccc2ccccc12 was read as EPAC1 ag val 28.4%.
COCCNc1ncnc2ccc(-c3ccc(N(C)C)cc3)cc12 was read as EPAC1 ag val -14.1%.
Screening CC[N+](CC)(CC)CCOC(=O)C(C1CCCC1)C1CCCC1 returned EPAC1 ag val -8.2%.
Screening c1cnc2c(-c3nccc4c3[nH]c3ccccc34)cccc2c1 returned EPAC1 ag val inconclusive.
Screening CN(C)c1ncc2nc(-c3cc(F)cc(F)c3)c(=O)n(CCC#N)c2n1 returned EPAC1 ag val -10.8%.
CC1=C(C(=O)O)N2C(=O)[C@@H](NC(=O)C(N)c3ccccc3)[C@H]2SC1 (stereo partly specified) was read as EPAC1 ag val 10.8%.
`COc1cc(OC)c2c(=O)c(O)c(-c3ccc(OC)c(OC)c3)oc2c1` gave EPAC1 ag val -5.0%.

3 entries from above, arranged by length of the SMILES, rising:
For N#CCC(=O)NN the results were EPAC1 ag val -32.4%[inhibitor].
`O=C(Nc1ccccc1)N1CC2(CCN(C(=O)c3ccncc3)CC2)C1` gave EPAC1 ag val 10.0%.
O=C(NCCCN1CCOCC1)c1cnn(-c2ncc3c(n2)-c2ccccc2CC3)c1C1CC1 was read as EPAC1 ag val -0.1%.

(listing goes on)
CC1=C(/C=C/C(C)=C/C=C/C(C)=C/C=C/C=C(C)/C=C/C=C(C)/C=C/C(=O)[C@]2(C)CC(O)CC2(C)C)C(C)(C)CC(O)C1 (stereo partly specified) was read as EPAC1 ag val -50.0%[inhibitor].
O=c1c(O)c(-c2ccc(O)c(O)c2)oc2c(OC3OC(CO)C(O)C(O)C3O)c(O)cc(O)c12 (stereo unspecified) was read as EPAC1 ag val inconclusive.
`O=C(O)C1CC(C2CCCCN2)CN2CCCCC12` (stereo unspecified) gave EPAC1 ag val -2.3%.
C[C@@H](C1[C@@H](O)CC2C3C=CC4C[C@@H](O)CC[C@]4(C)[C@H]3CC[C@@]21C)[C@@H]1CCCCN1 (stereo partly specified) was read as EPAC1 ag val -17.8%.
For Cc1noc(C)c1-c1nc(Nc2ccccc2)c2ccccc2n1 the results were EPAC1 ag val -34.4%[inhibitor].
`COc1ccc(C(C)N(C)Cc2nc(N3CCN(C(=O)c4ccco4)CC3)c3ccccc3n2)cc1` (stereo unspecified) gave EPAC1 ag val 8.4%.
Screening CCCCCC[C@@H]([C@@H](C)O)n1cnc2c(N)ncnc21 returned EPAC1 ag val -7.9%&-11.3%&-13.1%&-6.5%.
`CN1CCc2c(c3ccccc3n2Cc2ccccc2)C1` gave EPAC1 ag val 4.5%&-17.5%.
`N[C@H](C(=O)O)c1ccc(C(=O)O)c(O)c1` gave EPAC1 ag val -12.7%&-1.4%.
`O=C(c1cccc(Cl)c1)N1CCCC(Cn2cc(C(=O)N3CCCC3)nn2)C1` (stereo unspecified) gave EPAC1 ag val 11.1%.
Screening Cc1noc(C)c1-c1ccc2ncnc(NC3CCNCC3)c2c1 returned EPAC1 ag val -11.3%.
Screening C=C1Cc2c(Cl)cc3[nH]c4c5c3c2[C@@]2(O)[C@@H]1C[C@@H]2C(C)(C)O[C@H]5[C@@H]1CC[C@@]2(O)[C@@]35O[C@@H]3[C@@H](O)[C@@H](C(=O)O)O[C@H]5CC[C@]2(C)[C@@]41C returned EPAC1 ag val -15.6%.
`COC(=O)c1ccccc1NC(=O)c1ccc(F)cc1` gave EPAC1 ag val 8.3%.
O=C(O)c1cc2cc(Cc3cccnc3)ccc2o1 was read as EPAC1 ag val -5.7%&22.6%.
`COCC(=O)Nc1cc(C(=O)N[C@H]2CCCCNC2=O)c2c(c1)nc(-c1ccncc1)n2C` gave EPAC1 ag val 6.8%.
Screening COc1ccc(/C=C/C(=O)N2CCc3c(cnc(C)c3CNC(=O)c3ccsc3)C2)cc1OC returned EPAC1 ag val 11.0%.
`CN1CCN(c2c(F)cc3c(=O)c(C(=O)O)cn4c3c2OCN4C)CC1` gave EPAC1 ag val -6.9%.
Screening Cc1nc(CN2CCN(C(=O)CC3(c4ccccc4Cl)CC(=O)N(C)C3=O)CC2)cs1 (stereo unspecified) returned EPAC1 ag val -2.1%.
For COc1ccc2c(c1)-c1nc(-n3ncc(C(=O)NCC4CCCN(C)C4)c3C3CC3)ncc1CC2 (stereo unspecified) the results were EPAC1 ag val 1.5%.
`COC(=O)[C@@H]1CCCN1C(=O)c1c(OC)cc(=O)n2c1CCN(Cc1ccc(C)o1)CC2` gave EPAC1 ag val 5.9%.
For CCSc1nnc(C(C)NS(=O)(=O)c2cccc(Cl)c2C)n1C (stereo unspecified) the results were EPAC1 ag val 2.2%.
Cc1cccc(CNc2ccnc(-c3ccccc3C(F)(F)F)n2)c1 was read as EPAC1 ag val -1.7%.
For CC1(C)CC[C@]2(C(=O)O)CC[C@]3(C)C(=CCC4[C@@]5(C)CC[C@H](O)C(C)(C)[C@@H]5CC[C@]43C)C2C1 (stereo partly specified) the results were EPAC1 ag val 5.0%.

Only part of the results is shown; count on the stated rates, not on these rows.
